FPRL1 ligand – human FPRL1 ligands by binding competition, primary screen, cell-based, FPR counter-screen, flow cytometry. FPRL1-expressing cells, fluorescent ligand binding inhibition. actives 0.3% (n = 24,000). N-formyl peptide receptor 2 (Homo sapiens), P25090. inhibition, %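 (tested at 6.7 µM)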. AID 441, 2006;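 further: 0% = buffer alone and 100% = receptor blocker peptide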
Target sequence (P25090 whole entry, looked up): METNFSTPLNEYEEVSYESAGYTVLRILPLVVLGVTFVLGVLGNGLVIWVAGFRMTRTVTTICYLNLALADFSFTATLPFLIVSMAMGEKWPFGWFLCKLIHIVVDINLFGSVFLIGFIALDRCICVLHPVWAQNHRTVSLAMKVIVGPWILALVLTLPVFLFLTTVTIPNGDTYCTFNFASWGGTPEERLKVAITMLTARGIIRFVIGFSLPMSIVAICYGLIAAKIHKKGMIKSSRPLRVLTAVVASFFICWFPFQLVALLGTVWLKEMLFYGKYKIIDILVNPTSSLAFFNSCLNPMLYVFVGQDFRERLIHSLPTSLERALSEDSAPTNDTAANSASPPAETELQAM
VCAM-1 up imaging – enhancers of VCAM-1 display on endothelial cells, imaging, high-content imaging, pooled HUVEC, TNFa stimulus (AID 457) | Pooled HUVEC, TNFa-induced VCAM-1 immunofluorescence imaging; hits of this screen are not shown here | calls only | actives 0.2% (n = 10,000);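 active means a top-ranked rise in VCAM-1 staining upheld on image or statistical review; inactive means the rest, including candidates rejected on review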;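 further: compounds tested at 5 µM in the well; cells exposed to compound for 24 hours before fixing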
VCAM-1 down – inhibitors of TNFa-induced VCAM-1 surface display, cell-based, plate reader, pooled HUVEC, TNFa stimulus (AID 454). HUVEC TNFa-induced VCAM-1 surface immunofluorescence, plate reader; numbers were filed only for top-ranked candidate wells. inhibition, % at 5 µM. actives 0.2% (n = 10,000);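 active means compound among top-ranked inhibitors of TNF-induced VCAM-1 adhesion protein staining, with the hit upheld by image or statistical review; inactive means the rest, including hits rejected on review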;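 further: 0% = TNFa with vehicle and 100% = cells without TNFa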
FPR binder – human FPR ligands by binding competition, primary screen, cell-based, FPRL1 counter-screen, flow cytometry; fMet-Leu-Phe receptor (Homo sapiens), P21462; FPR-expressing cells, fluorescent ligand binding; inhibition, %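 (tested at 6.7 µM)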; actives 0.74% (n = 24,000); AID 440, 2006;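 further: 0% = buffer wells and 100% = receptor blocker peptide wells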
Target sequence (P21462 whole entry, looked up): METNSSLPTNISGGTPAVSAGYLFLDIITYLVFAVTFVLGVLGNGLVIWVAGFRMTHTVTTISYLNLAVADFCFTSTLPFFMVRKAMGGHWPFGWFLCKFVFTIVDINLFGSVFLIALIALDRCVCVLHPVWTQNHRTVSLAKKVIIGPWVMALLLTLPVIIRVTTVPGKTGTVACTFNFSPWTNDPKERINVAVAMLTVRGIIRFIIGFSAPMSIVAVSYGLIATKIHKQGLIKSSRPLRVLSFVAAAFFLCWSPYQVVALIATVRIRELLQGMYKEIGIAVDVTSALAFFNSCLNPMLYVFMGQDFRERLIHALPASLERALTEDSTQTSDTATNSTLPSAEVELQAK
VCAM-1 down imaging – inhibitors of TNFa-induced VCAM-1 surface display, imaging, high-content imaging, pooled HUVEC, TNFa stimulus (AID 456). HUVEC TNFa-induced VCAM-1 surface expression, immunofluorescence imaging; numbers were filed only for top-ranked candidate wells. one-dose inhibition, % at 5 µM; IC50 in µM for titrated hits. actives 0.2% (n = 10,000);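 active means top tenth filtered wells with inhibition above zero that passed visual or statistical confirmation; inactive means the rest, including hits rejected on review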;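 further: 0% = stimulated vehicle wells and 100% = unstimulated cells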
* hit, by the source's call; i = inactive; / = not tested or not shown.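 How the source made its calls, unless noted: active means mean above 30%; inconclusive means self-fluorescent; inactive means the rest.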

SMILES	FPRL1 ligand	VCAM-1 up imaging	VCAM-1 down	FPR binder	VCAM-1 down imaging
O=C(Nc1cc(N2CCOCC2)ncn1)NC1(C(F)(F)F)Oc2ccc(Cl)cc2O1 (stereo not drawn)	3	/	/	11	/
CC1(C)S[C@@H]2[C@H](NC(=O)[C@H](N)c3ccccc3)C(=O)N2[C@H]1C(=O)O	-1	i	i	4	i
O=C(NCc1ccc(F)cc1)c1ccc(CS(=O)(=O)Cc2ccccc2F)o1	-5	/	/	2	/
COc1ccc(-c2nnn(CC(=O)c3ccc4c(c3)OCCO4)n2)cc1OC	3	i	i	15	i
O=C(CSc1nnc(Cc2cc(=O)[nH]c(=O)[nH]2)n1-c1ccc(F)cc1)NC1CCCC1	3	/	/	2	/
CCOC(=O)C1=C(c2ccccc2)Nc2nc(C)nn2C1c1cccc(OC)c1OC (stereo not drawn)	-2	i	i	1	i
O=C(O)c1ccc(-n2nc(C(F)(F)F)c3c2-c2ccoc2CC3)cc1	2	i	i	-14	i
CCOC(=O)N1CCC(Nc2c(-c3ccc(C)c(C)c3)c(=O)c2=O)CC1	-3	/	/	0	/
CCN1CCn2c3c(c4cc(Br)ccc42)CCCC31 (stereo not drawn)	-6	/	/	-9	/
CCCN1CCN(CCCNC(=O)Cn2cc3c(n2)CCCC3)CC1	18	/	/	13	/
COCCN1Cc2cccc(C(=O)Nc3c(C)cccc3C)c2C1=O	4	/	/	8	/
O=C(O)c1ccc2noc(-c3ccccc3)c2c1	8	i	i	-2	i
S=c1nc(-c2ccccc2)n(CCCn2ccnc2)c2c1CCCC2	0	/	/	-2	/
Cc1cc(C(=O)Nc2c(F)cc(F)cc2Br)no1	-1	i	i	9	i
COc1ccc(OC)c(C2C(C(N)=O)=C(C)Nc3nc(CCCO)nn32)c1 (stereo not drawn)	-1	/	/	0	/
O=C(CSc1nnc(CNC(=O)c2ccccc2F)o1)c1ccccc1	-2	/	/	1	/
O=C(Nc1ccc2c(c1)OCO2)c1ccc(Br)c(S(=O)(=O)N2CCCC2)c1	1	i	i	0	i
CC(=O)c1ccc(NC(=O)C2CCCN2S(=O)(=O)c2ccc(C)cc2)cc1 (stereo not drawn)	0	/	/	0	/
Cc1c(C(=O)O)oc2ccc(S(=O)(=O)N3CCC(C)CC3)cc12	3	/	/	0	/
c1ccc(Cc2nn3c(Cn4cnc5ccccc54)nnc3s2)cc1	4	i	i	4	i
O=C(C1CCN(C2CC(=O)N(c3ccc(F)cc3)C2=O)CC1)N1CCOCC1 (stereo not drawn)	-1	i	i	-4	i
O=C1CC(c2ccccc2)C(C(=O)Nc2ccccc2F)N1 (stereo not drawn)	-6	/	/	-3	/
CCOc1ccccc1NC(=O)c1nc[nH]c1C(=O)Nc1ccccc1OCC	-8	/	/	-4	/
CCOC(=O)c1cc2sccc2n1Cc1ccccc1	0	i	i	-3	i
COc1cc(Cn2c(-c3nonc3N)nc3ccccc32)ccc1C	1	i	i	-3	i
Cc1ccc2oc3c(c(=O)c2c1)C(c1cccc(O)c1)N(c1ccccn1)C3=O (stereo not drawn)	-2	/	/	3	/
COc1ccc(N=c2scc(-c3ccc(S(=O)(=O)N4CCOCC4)cc3)n2CCCO)cc1	-1	i	i	6	i
c1ccc(Nc2nc(-c3cccnc3)cs2)nc1	4	/	/	12	/
Cc1cc(C)n2nc(CC(=O)NC3CCCCCC3)nc2n1	4	/	/	2	/
Cc1ccc(NC(=O)CCCC(=O)O)c(Br)c1	2	/	/	-7	/
O=C(Nc1ccccc1C(F)(F)F)N1CCC(n2c(=O)[nH]c3ccccc32)CC1	0	/	/	3	/
COc1ccc(NC(=O)c2nc[nH]c2C(=O)Nc2ccccc2C)cc1	12	/	/	-5	/
CC1Cc2ccccc2N1Cc1cc(=O)n2ccsc2n1 (stereo not drawn)	2	i	i	-4	i
CCOC(=O)c1cn(CC(=O)Nc2ccc3c(c2)OCCO3)nn1	-7	/	/	-7	/
COc1ccc(-n2c(SCc3ccc(C#N)cc3)nnc2-c2ccccn2)cc1	-4	i	i	-4	i
O=C(CSc1nnc(-c2c[nH]c3ccccc23)n1-c1ccc(F)cc1)NCc1ccco1	18	/	/	22	/
N#Cc1c(N2C(=O)C3C4C=CC(C4)C3C2=O)sc2c1CCC2 (stereo not drawn)	-4	i	i	1	i
O=C(C1CCN(S(=O)(=O)c2cnc[nH]2)CC1)N1CCN(Cc2ccc3c(c2)OCO3)CC1	0	/	/	-1	/
CC1=Nn2c(nnc2-c2ccc(F)cc2)SC1	-2	i	i	-5	i
CN1C(=O)NC(NC(=O)C2CCCCC2)(C(F)(F)F)C1=O (stereo not drawn)	-5	i	i	-8	i
Fc1ccccc1N1CCN(CCCNc2ccc3nncn3n2)CC1	2	/	/	-4	/
Cc1ccc(C2N(c3ccc(F)cc3)C(=O)C3CCCN32)cc1 (stereo not drawn)	2	/	/	2	/
CCN(CC)C(=O)Oc1ccccc1NC(C)=O	-3	i	i	3	i
CCCCN(CC)CCNS(=O)(=O)c1ccc2c(c1)oc(=O)n2C	0	/	/	-1	/
COc1ccc(-c2nnc(SCC(=O)NC(=O)NCc3ccco3)o2)cc1	3	i	i	3	i

The last 5 entries of the section above come first, to join the parts:
SMILES	FPRL1 ligand	VCAM-1 up imaging	VCAM-1 down	FPR binder	VCAM-1 down imaging
Fc1ccccc1N1CCN(CCCNc2ccc3nncn3n2)CC1	2	/	/	-4	/
Cc1ccc(C2N(c3ccc(F)cc3)C(=O)C3CCCN32)cc1 (stereo not drawn)	2	/	/	2	/
CCN(CC)C(=O)Oc1ccccc1NC(C)=O	-3	i	i	3	i
CCCCN(CC)CCNS(=O)(=O)c1ccc2c(c1)oc(=O)n2C	0	/	/	-1	/
COc1ccc(-c2nnc(SCC(=O)NC(=O)NCc3ccco3)o2)cc1	3	i	i	3	i
O=C(O)Cn1c(SC2CCCCC2)nc2ccccc21	1	/	/	-7	/
CS(=O)(=O)N1CCCC(C(=O)NCCc2ccc(Cl)cc2)C1 (stereo not drawn)	0	/	/	4	/
CC1(C)CC2CC(C)(CN2C(=O)c2cc(-c3ccccc3O)on2)C1 (stereo not drawn)	-6	/	/	-8	/
CN(CC(=O)Nc1ccc2c(c1)OCCO2)S(=O)(=O)c1cccc2cccnc12	8	/	/	-7	/
CCOC(=O)c1ccccc1NC(=O)CN1C(=O)CCS(=O)(=O)c2ccccc21	10	/	/	6	/
Nc1nonc1N1CCCCC1	1	i	i	4	i
COc1ccc(CCN(C)C(=O)C2CCCN(Cc3ccc(OC)c(OC)c3)C2)cc1OC (stereo not drawn)	1	/	/	7	/
Clc1ccc2nc(N3CCCCC3)[nH]c2c1	-1	i	i	-5	i
O=C(COC(=O)Cc1cccc(C(F)(F)F)c1)NCC1CCCO1 (stereo not drawn)	5	i	i	-4	i
Cc1ccc(C)n1-n1c(C)nc2sc(-c3ccccc3)cc2c1=O	2	i	i	-11	i
CC1=C(C(=O)Nc2ccccn2)C(c2ccc(N(C)C)cc2)n2ncnc2N1 (stereo not drawn)	-1	/	/	-8	/
CC1CCCCC1NC(=O)C1CCN(C(=O)NC2CCCCC2)CC1 (stereo not drawn)	-6	i	i	-4	i
CSc1nc2ccccc2c(=O)n1N	-1	i	i	6	i
CCCCN(C)S(=O)(=O)c1cc(Br)cc2c1N(C(=O)C1CC1)CC2	-9	/	/	-1	/
CN(C)c1ccc(-c2nn3c(-c4ccc(Cl)cc4Cl)nnc3s2)cc1	-1	i	i	3	i
CCOC(=O)CSc1nc2c(c(-c3ccc(C)o3)c1C#N)CCCC2	-12	i	i	4	i
CCCNS(=O)(=O)c1cccc2cccnc12	4	/	/	-2	/
CCC(=O)c1ccc(OCCN2CCOCC2)cc1	2	i	i	-6	i
CCn1c(N)c(C(=O)NCc2ccco2)sc1=S	6	/	/	-3	/
O=C(C1CCN(S(=O)(=O)c2cnc[nH]2)CC1)N1CCc2ccccc2C1	-2	/	/	0	/
NS(=O)(=O)c1ccc(CCNC(=O)CCC2COc3ccccc3O2)cc1 (stereo not drawn)	6	i	i	12	i
COc1ccc(OCCCC(=O)Nc2nncs2)cc1	-4	i	i	-11	i
O=C(c1ccco1)N1CCN(c2nc3ccccc3n3nnnc23)CC1	-6	/	/	-9	/
COc1ccc(NC(=O)C2CCN(Cc3cnn(-c4ccccc4)c3-n3cccc3)CC2)cc1OC	4	/	/	0	/
Nc1ccc2nc3n(c(=O)c2c1)CCC3	3	/	/	-1	/
COC(=O)c1ccc2c(=O)n(CC3CCCO3)c(SCC(=O)Nc3ccccc3OC)nc2c1 (stereo not drawn)	-3	/	/	0	/
COc1nc(N(C)C)nc(-n2nnc(C(C)=O)c2C)n1	4	/	/	-2	/
Cc1ccc(S(=O)(=O)Nc2cc(C(=O)N3CCOCC3)ccc2N2CCCCC2)cc1	0	/	/	3	/
CCOC(=O)c1oc2ccc(S(=O)(=O)n3nc(-c4ccc(OC)cc4)cc3N)cc2c1C	-2	/	/	1	/
FC(F)(F)c1cc(-c2ccco2)nc(NCc2cccnc2)n1	-4	/	/	6	/
O=C(NCc1cccc(F)c1)c1noc2c1CCCC2	5	/	/	4	/
COCCN1C(=O)C(=O)/C(=C(/O)c2ccc(OCC(C)C)cc2)C1c1cccnc1 (stereo not drawn)	-2	/	/	8	/
CN(C(=O)c1cc2sccc2n1C)C1CCCCC1	4	i	i	19	i
CN(CC(=O)O)S(=O)(=O)c1cc(Cl)ccc1Cl	0	i	i	-2	i
COC(=O)c1nc2cc(C)ccn2c1F	-4	/	/	2	/
CC(=O)N1CCc2cc(S(=O)(=O)NCCC(=O)Nc3cccc(C)c3)ccc21	1	/	/	-5	/
CC(C)N(CCCNC(=O)C1CCN(S(=O)(=O)N2CCOCC2)CC1)Cc1ccccc1	3	/	/	4	/
CCN(CC)c1ncnc2sc(C(=O)N3CCN(c4ccc(OC)cc4)CC3)c(C)c12	6	/	/	0	/
N#Cc1c(N)nc(SCc2ccncc2)c(C#N)c1-c1cccs1	3	i	i	2	i
CCOC(=O)c1cc2sc(C)cc2n1CC(=O)Nc1cccc(C)c1C	-1	i	i	4	i
O=C(CN1CCN(Cc2ccc(Cl)cc2)C1=O)NCCN1CCCC1	1	/	/	3	/
CCN1CCCC1CNCc1ccc(Cl)cc1Cl (stereo not drawn)	5	i	i	-7	i
Cc1cc(C)cc(-n2nnc(C(=O)NCc3ccc(Cl)cc3)c2N)c1	-1	/	/	4	/
Cc1ccccc1-n1nnnc1SCC(=O)Nc1ccc(S(=O)(=O)N2CCCC2)cc1	-1	i	i	1	i
O=C1C(SC(F)(F)C(F)F)=C(C(F)(F)F)OC2C3C=CC(C3)C12 (stereo not drawn)	5	/	/	4	/
Cc1nnc(SCCn2c(N3CC(C)CC(C)C3)nc3c2c(=O)n(C)c(=O)n3C)s1 (stereo not drawn)	-3	i	i	3	i
CC1CCN(C(=O)CN(C)S(=O)(=O)c2cccc3nsnc23)CC1	3	/	/	-2	/
O=c1oc2ccccc2n1CCCOc1ccccc1	4	/	/	12	/
CCN(CC)CCCN1C(=O)C(O)=C(C(=O)c2ccco2)C1c1ccc(C)o1 (stereo not drawn)	3	i	i	1	i
CN(C)c1nc(N2CCCCC2)nc(N2CCCCC2)n1	-3	/	/	8	/

Full records, quoted from the list:
Shown for Cc1ccc(C2N(c3ccc(F)cc3)C(=O)C3CCCN32)cc1 (stereo not drawn) : FPRL1 ligand: 2; VCAM-1 up imaging: /; VCAM-1 down: /; FPR binder: 2; VCAM-1 down imaging: /
Shown for O=C(Nc1ccccc1C(F)(F)F)N1CCC(n2c(=O)[nH]c3ccccc32)CC1 : FPRL1 ligand: 0; VCAM-1 up imaging: /; VCAM-1 down: /; FPR binder: 3; VCAM-1 down imaging: /

The list is partial; count on the stated rates, not on these rows.
